ClpP mod – qHTS Assay for Activators of ClpP. ATP-dependent Clp protease proteolytic subunit (Bacillus subtilis (strain 168)), P80244. purified B. subtilis ClpP, FRET peptide cleavage, 20 min. Potency, µM (titrated, usually from 57.5 µM), without a hit: top-dose activity change, negative = active. hit rate 1.9% among 340,000; active = well fitted falling curve with a large enough effect; inconclusive = small, poorly fitted or top-dose-only effect; inactive = no such curve, though single readings can be large or run the other way; note: potency is the fitted concentration of half-maximal effect; the source files actives as falling curves though it sought activators and does not explain the sign; nearly all actives have a fitted effect of over 65% in size; many hits overshoot -100%
Target sequence (P80244 whole entry, looked up): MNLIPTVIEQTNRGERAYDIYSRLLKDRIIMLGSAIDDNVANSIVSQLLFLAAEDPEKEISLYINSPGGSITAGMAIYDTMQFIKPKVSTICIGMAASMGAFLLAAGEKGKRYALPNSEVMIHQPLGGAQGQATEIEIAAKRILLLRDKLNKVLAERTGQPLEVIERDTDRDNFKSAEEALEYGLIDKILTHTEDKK
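Purified B. subtilis ClpP, 10 microg/mL final in Tris/HCl pH8 with KCl, BSA, glycerol and Tween-20, cleaved an Abz/nitrotyrosine-quenched decapeptide. Fluorescence (ex 320, em 430) was read at 0 and 20 min at room temperature. Delta was normalized to 5.8 microM ADEP and DMSO/no-enzyme controls.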
gsp ag – qHTS for Agonist of gsp, the Etiologic Mutation Responsible for Fibrous Dysplasia/McCune-Albright Syndrome: qHTS; gsp mutant cells, cAMP HTRF, 30 min; control for the full effect not named in the record; Potency, µM (top dose mostly 76.9 µM), without a hit: at the top dose activation (cAMP increase), usual class: activators; hit rate 0.13% among 340,000; AID 624287, 2012; active = well fitted activation curve with a large enough effect; inconclusive = small, poorly fitted or top-dose-only effect, or another doubt; inactive = no such curve, though single readings can be large or run the other way; cell line not stated here;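 note: phosphodiesterase inhibitor Ro 20-1724 added with compounds to block cAMP breakdown; potency is the fitted concentration of half-maximal effect; nearly all actives have a fitted effect of over 60% in size; about a fifth of the inactives were tested at one dose only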
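Cells in DMEM/10% FBS with G418 were pretreated with compounds in DMSO plus […] (300 uM stock) for 30 min at 37C. cAMP was measured by HTRF (cAMP-d2 plus anti-cAMP antibody-K) after 30 min at room temperature.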
PINK1 expr mod – A Quantitative High throughput Screen to Identify Chemical Modulators of PINK1 Expression; PINK1 immunofluorescence, high-content cytometry, 24 h; Potency, µM (top dose mostly 76.6 µM), inactives show at the highest dose activation (PINK1 increase), usual class: activators; hit rate 0.2% among 410,000; AID 624263, 2012; active = well fitted activation curve with a large enough effect; inconclusive = small, poorly fitted or top-dose-only effect; inactive = flat fitted curve, though single readings scatter; cell line not stated here;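 note: potency is the fitted concentration of half-maximal effect; % of control where 0% means no effect; nearly all actives have a fitted effect of over 65% in size; a mitochondrial uncoupler was the plate control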
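Readout is PINK1 immunofluorescence, quantified alongside mitochondrial, cell and nuclear markers by laser-scanning microplate cytometry. Cells from a stable line were exposed to compound titrations (5 concentrations) for 24 hours, with CCCP controls.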
D2 agonist – Beta-Arrestin HTS for Positive Allosteric Modulators of the Human D2 Dopamine Receptor: Agonists; activation, % (test concentration not listed); DiscoveRx PathHunter D2 beta-arrestin, luminescence, 90 min; 100% = 57 uM dopamine signal; hit rate 0.084% among 360,000; D(2) dopamine receptor (Homo sapiens), P14416; AID 624465, 2012; in the data active = activation above about 40%; inconclusive = about 15% to 40%; inactive = below about 15%; note: compound concentration not given in the record; the text of the record calls up to 30% inactive
Target sequence (P14416 whole entry, looked up): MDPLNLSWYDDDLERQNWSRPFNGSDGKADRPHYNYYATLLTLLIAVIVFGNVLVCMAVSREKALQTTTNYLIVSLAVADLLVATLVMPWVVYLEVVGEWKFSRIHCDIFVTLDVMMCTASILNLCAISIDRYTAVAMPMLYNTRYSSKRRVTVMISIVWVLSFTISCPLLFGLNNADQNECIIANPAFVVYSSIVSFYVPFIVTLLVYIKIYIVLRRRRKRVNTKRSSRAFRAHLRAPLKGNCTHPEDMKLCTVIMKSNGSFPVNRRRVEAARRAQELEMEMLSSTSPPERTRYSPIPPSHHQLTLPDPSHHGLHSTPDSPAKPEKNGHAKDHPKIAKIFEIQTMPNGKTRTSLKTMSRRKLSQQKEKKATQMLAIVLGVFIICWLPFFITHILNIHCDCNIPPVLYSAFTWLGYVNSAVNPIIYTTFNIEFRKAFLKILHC
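DiscoveRx PathHunter D2 beta-arrestin cells (2,100/well) attached overnight, then compound-stimulated 90 min at 37 C in HBSS/10 mM HEPES/0.1% Tween-20 buffer; beta-galactosidase complementation read by luminescence after 1 h at ambient temperature. Dopamine 57 uM final (EC100) as control.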
gsp antag – qHTS for Antagonists of gsp, the Etiologic Mutation Responsible for Fibrous Dysplasia/McCune-Albright Syndrome: qHTS | gsp-mutant cells, cAMP HTRF, 30 min; control for the full effect not named in the record | AID 624288, 2012 | hit rate 0.4% among 340,000 | Potency, µM (titrated, usually from 76.9 µM), without a hit: at the top dose activity change, negative = inhibition, hits mostly inhibitors; active = falling curve of any shape with a large fitted effect; inconclusive = falling curve, mostly with a smaller effect; inactive = flat or rising curve; cell line not stated here;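 note: intracellular cAMP measured with PDE inhibitor Ro 20-1724 present during compound exposure; potency is the fitted concentration of half-maximal effect; % is set by controls: 0 for no effect and ±100 for the full control effect; nearly all actives have a fitted effect of over 65% in size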
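Cells in G418 medium, seeded 16-24 h, 37C; buffer exchange to DPBS + 1 mM CaCl2, 0.5 mM MgCl2, 0.05% BSA; cpds in DMSO + […] (300 uM stock), 30 min 37C; HTRF cAMP detection.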
Sfp inh – qHTS Assay for Inhibitors of Bacillus subtilis Sfp phosphopantetheinyl transferase (PPTase). 4'-phosphopantetheinyl transferase ffp (Bacillus subtilis), Q9F4F7. Biochemical Sfp PPTase activity, qHTS. Potency, µM, for the others: max response, negative = inhibition, actives largely listed as inhibitors. hit rate 3.5% among 310,000. AID 1490, 2009; active = well fitted inhibition curve with a large enough effect; inconclusive = small, poorly fitted or top-dose-only effect, or another doubt; inactive = no such curve, though single readings can be large or run the other way;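 note: the enzyme is Sfp with the accession as filed and its product quenches rhodamine fluorescence; potency is the fitted concentration of half-maximal effect; 0% = enzyme reaction without inhibitor and -100% = no enzyme wells; top concentration of the series not given in the record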
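Buffer: 50 mM Hepes-Na pH 7.6, 10 mM MgCl2, 0.01% Nonidet P-40, 0.01% BSA. Enzyme 15 nM, pre-exposed to compound 15 min; substrates then added and fluorescence change tracked over 30 min.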
Menin-MLL FL inh – qHTS Assay for Inhibitors Targeting the Menin-MLL Interaction in MLL Related Leukemias: Competition With Fluorescein Labeled MLL-derived Peptide; Fluorescence polarization, fluorescein-MLL peptide displacement from menin; FP activity change, % at 61.4 µM; 290,000 tested, under 10 active; AID 1766, 2009; inconclusive = falling polarisation curve, or a change in total fluorescence; inactive = total fluorescence flat and polarisation flat or rising; no compound was filed as active; the % refers to the polarisation; negative = inhibition;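 note: % of control where 0% means no effect; inhibitors lower the polarisation; unlabelled MLL peptide was the positive control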
* marks the source's active call; other numbers are inactive results; ? = inconclusive; nt = not tested or not shown; [ ] = remark or other dose.

Results follow in this order: gsp antag, PINK1 expr mod, gsp ag, ClpP mod, Menin-MLL FL inh, D2 agonist, Sfp inh
[1] Cc1sc2nc(CSCC(=O)Nc3ccccc3C#N)[nH]c(=O)c2c1C
→ 6.2%, -0.8%, 31.0%, -16.1%, 10.5, -5.3, 79.4µM*
[2] CSc1ccccc1NC(=O)CN(C)C(C)C(=O)Nc1ccc(C#N)cc1 (stereo unspecified)
→ -14.2%, 0.2%, -15.7%[15.4 µM], nt, 0.2, -5.7, 3.0%
[3] CC1=CC(C)(C)N(C(=O)CSc2nnc(-c3ccc(C)cc3)o2)c2ccc(C)cc21
→ -9.2%, 3.5%, 11.8%, -6.0%, 2.1, -5.2, 4.2%
[4] CC#CCN1c2ccccc2[C@]23C[C@@H](C(=O)OC)N(C(=O)NC4CCCCC4)C2=NC(C(=O)OC)=C(C(=O)OC)[C@H]13
→ -6.7%, 0.2%, -0.8%, 0.1%, nt, -7.4, nt
[5] Nc1cc2c3c(cccc3c1)C(=O)N(CCN1CCCC1)C2=O
→ ?, -2.1%, 16.3%[15.4 µM], nt, ?, -4.6, -11.4%
[6] COc1cccc(C(NC(C)=O)c2nc(-c3ccc(C)c(C)c3)cs2)c1 (stereo unspecified)
→ nt, 7.2%, nt, 0.5%, nt, -3.5, nt
[7] CCn1c2ccccc2c2cc(NC(=O)CSc3nnc(-c4cccc(OC)c4)n3N)ccc21
→ -16.7%, 9.7%, 10.2%, 50.2%, 2.3, 2.1, 5.5%
[8] Cc1cccc(C)c1NC(=O)CN1C(=O)NC(C)(CCc2ccccc2)C1=O (stereo unspecified)
→ 9.1%, 0.1%, 2.2%, -0.1%, 1.1, -5.7, -0.2%
[9] N#CCSc1nc2c(c(C3CC=CCC3)c1C#N)CCC2 (stereo unspecified)
→ -10.1%, -1.9%, 1.7%, -2.4%, 5.0, -0.2, -11.2%
[10] OCC[C@H]1C[C@H](O)[C@@H](O)[C@@]2(CCc3ccccc3O2)O1
→ 15.4%, 0.0%, -32.5%, 3.1%, nt, 0.0, nt
[11] CC(Sc1nnnn1C)C(=O)Nc1cc(S(=O)(=O)N2CCCCC2)ccc1Cl (stereo unspecified)
→ 7.1%, 1.2%, 1.8%, 1.6%, nt, -3.1, nt
[12] Cc1ccc(-c2csc(NC(=O)Cc3ccc(F)cc3)n2)o1
→ 5.6%, 1.7%, -3.6%[15.4 µM], nt, -0.3, -1.7, 12.6µM*
[13] Cc1cc(NC(=O)NCc2ccccc2)c(=O)n(Cc2ccccc2F)c1
→ -3.6%, 8.5%, 25.6%, ?, 4.8, -5.8, 15.2%
[14] COC(=O)c1c(CCl)noc1C(=O)NCC1CCCO1 (stereo unspecified)
→ 0.5%, 2.3%, -30.9%[inhibitor], -2.2%, 0.9, -3.3, 7.7%
[15] CCOC(=O)N1CCN(C(=O)c2cn(C)c3ccc(S(=O)(=O)N4CCCC4)cc3c2=O)CC1
→ 4.0%, -0.6%, 16.0%, 1.1%, 0.4, -1.5, 23.7%
[16] COc1cnc(-c2cccc(C(F)(F)F)c2)[nH]c1=O
→ -1.0%, -0.8%, ?, nt, 0.0, -1.2, 19.7%
[17] Cc1occc1-c1nnc(SCC(=O)NC2CCC(C)CC2)o1 (stereo unspecified)
→ 0.3%, -0.6%, -25.5%, 1.9%, nt, -3.0, nt
[18] CCC(=O)NS(=O)(=O)c1cccnc1Nc1ccccc1Cl
→ 9.4%[15.4 µM], -0.1%, -3.2%, -4.4%, 0.3, 0.4, 11.0%
[19] Cc1ccc(SCC(=O)OCC(=O)N(C)CC(=O)Nc2ccccc2Cl)cc1C
→ -0.3%, 0.3%, 0.1%[15.4 µM], -0.9%, nt, 0.7, 0.5%
[20] CCC(=O)N1CCc2cc(S(=O)(=O)CCC(=O)NCc3ccco3)ccc21
→ -2.2%, 6.7%, 6.0%, -10.2%, 0.2, 1.1, -3.4%

Reprinted from the part before: 2 entries, then new ones.
Results follow in this order: gsp antag, PINK1 expr mod, gsp ag, ClpP mod, Menin-MLL FL inh, D2 agonist, Sfp inh
[19] Cc1ccc(SCC(=O)OCC(=O)N(C)CC(=O)Nc2ccccc2Cl)cc1C
→ -0.3%, 0.3%, 0.1%[15.4 µM], -0.9%, nt, 0.7, 0.5%
[20] CCC(=O)N1CCc2cc(S(=O)(=O)CCC(=O)NCc3ccco3)ccc21
→ -2.2%, 6.7%, 6.0%, -10.2%, 0.2, 1.1, -3.4%
[21] Cc1nn(-c2ccccc2)c(C)c1C(=O)NNC(=O)C(F)(F)F
→ 5.0%, 0.4%, -0.3%[15.4 µM], nt, 4.4, -0.6, 14.4%
[22] COc1ccc(NC(=O)C2(N(CC(C)C)C(=O)Cn3nnnc3N)CCCCC2)cc1
→ -7.7%, 0.2%, -10.3%, -0.4%, -1.1, -3.3, 1.5%
[23] CCc1nn(C(CC)C(=O)NCCCN2CC(C)CC(C)C2)c(=O)c2cc3oc(C)cc3n12 (stereo unspecified)
→ 3.6%, -2.2%, 26.2%, -10.2%, nt, -3.9, 2.6%
[24] O=C(NC1CCCC1)C(=O)N(Cc1cccnc1)C(C(=O)NCC1CCCO1)c1ccco1 (stereo unspecified)
→ -10.2%, 1.4%, -4.0%, 3.5%, -2.1, 1.1, 22.9%
[25] Cc1cc(C)c(O)c(-c2cc(C(=O)NCc3ccccc3)[nH]n2)c1
→ -26.5%, 1.8%, -13.3%, 0.1%, 0.0, 0.4, 15.1%
[26] CCOC(=O)CCCOC(=O)c1ccc(S(=O)(=O)N(C)C)cc1
→ 10.7%, -1.1%, 9.7%, 1.0%, 1.7, -4.6, 14.5%
[27] CC(=O)c1cccc(Nc2ccc(-c3ccccc3F)nn2)c1
→ -16.7%, 1.9%, 13.0%[15.4 µM], nt, -0.5, -3.4, 10.9%
[28] CC(C)OCc1c(C(=O)OC/C(O)=C(\C#N)c2nc3ccccc3[nH]2)oc2ccccc12
→ -3.5%, ?, -4.6%, nt, 16.2, -0.1, 7.9%
[29] Cc1nn(CC(=O)c2ccc3c(c2)OCCO3)c(=O)c(C#N)c1C
→ -2.2%, 1.3%, 3.1%, nt, nt, 4.4, nt
[30] CCC(=NCCc1c(C)[nH]c2ccc(C)cc12)C1=C(O)CC(c2ccccc2)CC1=O (stereo unspecified)
→ 7.8%, 2.4%, -1.8%[15.4 µM], 0.8%, 1.0, -1.7, 12.3%
[31] CCO[C@@H]1OC(C(=O)NCc2nc3ccccc3[nH]2)=C[C@H](C(C)(C)C)[C@H]1CCCO
→ 5.9%, 1.9%, -4.9%, 0.2%, nt, -1.1, nt
[32] CC(/C=C/c1ccccc1)=N\NC(=O)c1ccc2c(c1)OCCO2
→ -14.0%, 4.8%, 6.2%, -4.1%, 1.2, -1.8, 12.6%
[33] O=C1NC(c2ccc(-c3ccccc3[N+](=O)[O-])o2)C(C(=O)c2ccccc2)C(O)(C(F)(F)F)N1 (stereo unspecified)
→ 2.5%, -0.2%, -2.4%, -2.8%, 4.3, ?, -14.7%
[34] COc1ccc(CNC(=O)C2CCN(S(=O)(=O)N3CC(C)CC(C)C3)CC2)cc1 (stereo unspecified)
→ 7.9%, 3.3%, 34.0%, 1.8%, -0.3, 6.2, 15.0%
[35] COc1ccc(OCC(=O)N2N=C(C(F)F)CC2(O)C(F)F)cc1 (stereo unspecified)
→ 13.0%, 1.3%, 4.5%, -2.1%, 11.8, -1.5, 14.1%
[36] COc1ccccc1C(=O)Nc1ccc(OCc2nnc3c4ccccc4c(C)nn23)cc1
→ ?, -1.0%, 2.0%[15.4 µM], nt, 0.8, 3.7, -0.7%
[37] CCC(C)(C(=O)NC1CCCC1)N(C(=O)c1ccccn1)c1ccc(C)cc1 (stereo unspecified)
→ 2.5%, -2.6%, -40.2%[inhibitor], -0.7%, 0.2, -3.8, 1.2%
[38] Cc1c(Cl)cccc1-c1ccc(CNCc2ccccn2)o1
→ 9.9%, 0.2%, -33.2%[inhibitor], -0.3%, 1.6, -2.5, ?
[39] COc1ccc(-n2c(SCC(=O)Nc3ccc(C(=O)O)cc3)nnc2-c2cccs2)cc1
→ -6.1%, -3.4%, 2.3%, -7.2%, 1.2, 0.6, 17.4%
[40] Cc1cccc(C(=O)NCCNc2nc3cc(C)c(C)cc3cc2C)c1
→ 11.7%, 5.9%, ?, -16.2%, -3.4, -1.4, 1.1%
[41] COc1ccc(OC)c(S(=O)(=O)n2nnc3cc(Cl)ccc32)c1
→ 2.2%, -4.3%[38.3 µM], -40.3%[inhibitor], -4.7%, 2.9, -0.1, -3.4%
[42] Cc1ccc(C(CNS(=O)(=O)c2ccc(C)cc2)N2CCN(C)CC2)cc1 (stereo unspecified)
→ 14.7%, -0.9%, 12.2%, 0.6%, nt, -4.6, nt
[43] O=c1[nH]c2ccccc2cc1CN(Cc1cccnc1)S(=O)(=O)c1ccc(Cl)cc1
→ -15.9%, 2.1%, 13.6%, nt, nt, 1.8, 2.4%
[44] CCOC(=O)NN1C(=O)c2ccccc2NC12CCCC2
→ nt, 2.5%, 13.8%[15.4 µM], nt, -0.5, -3.8, 23.3%
[45] Cc1ccc(S(=O)(=O)N2CCN(C(=O)CN3C(=O)NC(C)(CCC(C)C)C3=O)CC2)c(C)c1 (stereo unspecified)
→ -4.6%, 3.2%, 1.3%, -1.0%, nt, -0.5, nt
